High-throughput results (PubChem)
NS1 function inh: blocks influenza NS1 protein function; S. cerevisiae slowed by influenza A NS1, growth recovery by OD600; actives 0.4% (n = 270,000); Potency, µM (titrated, usually from 46.1 µM), inactives show top-dose activity, positive = more growth; also: actives are rising curves; nearly all actives have a fitted effect of over 50% in size
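Read-out: OD600 growth recovery of NS1-expressing budding yeast. Cells grown overnight at 30C in -URA glucose medium, washed, resuspended and diluted 1:100 in 2% galactose assay medium, pH 6.0. Same strain lacking NS1 served as positive control.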
Cruzain inh Det: inhibitors of Trypanosoma cruzi cruzain with detergent | P25779 | purified cruzain, Z-FR-AMC fluorescence, 0.01% Triton | Potency, µM, inactives show max response, negative = inhibition, hits mostly inhibitors | actives 0.43% (n = 200,000); active = well fitted curve in the direction sought with a large enough effect; inconclusive = small, poorly fitted or top-dose-only effect, or another doubt; inactive = no such curve, though single readings can be large; an effect the other way counts as inactive or inconclusive;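 also: plate controls were neutral wells for no effect and buffer without enzyme for full effect; nearly all actives have a fitted effect of over 40% in size; top concentration of the series not given in the record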
Target sequence (P25779 123-467 limits assumed): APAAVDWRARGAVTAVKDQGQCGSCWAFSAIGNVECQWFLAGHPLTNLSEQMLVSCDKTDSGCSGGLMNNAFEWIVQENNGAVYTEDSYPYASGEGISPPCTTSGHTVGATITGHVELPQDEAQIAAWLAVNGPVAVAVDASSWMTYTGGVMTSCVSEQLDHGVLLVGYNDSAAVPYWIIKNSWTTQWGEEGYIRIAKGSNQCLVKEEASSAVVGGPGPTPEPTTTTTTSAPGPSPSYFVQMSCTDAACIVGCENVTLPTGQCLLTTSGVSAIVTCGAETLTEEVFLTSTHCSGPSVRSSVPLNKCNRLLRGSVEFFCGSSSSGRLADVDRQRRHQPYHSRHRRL
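Purified cruzain (1.5 nM final) was preincubated with compounds for 15 min at room temperature in 100 mM sodium acetate pH 5.5, 5 mM DTT, 0.01% Triton X-100. Reaction started with 2 uM Z-FR-AMC; AMC fluorescence change over 60 s gave activity.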
SARS PLP yeast: blocks SARS-CoV papain-like protease in a yeast assay. actives 0.19% (n = 330,000). S. cerevisiae expressing SARS-CoV PLpro, growth rescue; control for the full effect not named in the record. Potency, µM (doses to about 32.9 µM), without a hit: at the top dose activity, positive = growth rescue. AID 485353; also: 0% is about no effect; nearly all actives have a fitted effect of over 55% in size; growth read by luminescence after 48 h
MARV entry inh: inhibitors of Marburg virus binding or cell entry; Marburg virus pseudotyped entry inhibition, cell reporter; control for the full effect not named in the record; about a third of the inactives were read at about 46 µM; Potency, µM (top dose mostly 37.8 µM), without a hit: at the highest dose activity change, negative = inhibition, usual class: inhibitors; actives 1.8% (n = 300,000); active = well fitted inhibition curve with a large enough effect; inconclusive = small, poorly fitted or top-dose-only effect, or effect the other way; inactive = flat fitted curve, though single readings scatter; tested in HEK293 cells; about a fifth of its hits are not listed in these tables; also: % is scaled to controls: 0 for no effect and ±100 for the full control effect; luciferase read-out
Cruzain inh noDet: blocks cruzain activity in detergent-free assay; purified cruzain, Z-FR-AMC fluorescence, no detergent; Potency, µM, without a hit: max response, negative = inhibition, hits mostly inhibitors; actives 2.3% (n = 200,000); active = well fitted curve in the direction sought with a large enough effect; inconclusive = small, poorly fitted or top-dose-only effect, or another doubt; inactive = no such curve, though single readings can be large; an effect the other way counts as inactive or inconclusive;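 also: plate controls were enzyme without inhibitor for no effect and buffer without enzyme for full effect; nearly all actives have a fitted effect of over 40% in size; top concentration of the series not given in the record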
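Purified cruzain at 1.5 nM, pre-incubated 15 min with compound at room temperature in 100 mM sodium acetate pH 5.5, 5 mM DTT, 0.00005% Triton X-100. Reaction started with 2 uM Z-FR-AMC; AMC fluorescence increase over 60 s gives rate.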
Lassa entry inh: blocks Lassa virus binding to or entry into cells | Lassa virus pseudotype entry inhibition, cell reporter; control for the full effect not named in the record | Potency, µM (highest dose often 37.9 µM), inactives show at the highest dose activity change, negative = inhibition, usual class: inhibitors | actives 1.2% (n = 300,000); active means well fitted inhibition curve with a large enough effect; inconclusive means small, poorly fitted or top-dose-only effect, or effect the other way; inactive means flat fitted curve, though single readings scatter; tested in HEK293 cells; also: % is scaled to controls: 0 for no effect and ±100 for the full control effect; nearly all actives have a fitted effect of over 50% in size; luciferase read-out
StopGo reporter: lowers the luciferase signal of an FMDV 2A StopGo reporter; human cells with a luciferase reporter of 2A StopGo recoding; control for the full effect not named in the record; Potency, µM (series often up to 57.9 µM), without a hit: top-dose signal change, negative = less light; actives 1.2% (n = 410,000); active = well fitted falling curve with a large enough effect; inconclusive = small, poorly fitted or top-dose-only effect; inactive = no such curve, though single readings can be large or run the other way; tested in HEK293T cells; also: % is scaled to controls: 0 for no effect and ±100 for the full control effect; nearly all actives have a fitted effect of over 45% in size; luciferase light after 4 h
RE007 growth inh: less growth of the S. pombe RE007 Vpr strain. S. pombe RE007 Vpr strain, BacTiter-Glo ATP luminescence, 24 h; control for the full effect not named in the record. Potency, µM (doses to about 92.2 µM), for inactives: at the top dose activity change, negative = less growth. actives 0.21% (n = 360,000); active = well fitted falling curve with a large enough effect; inconclusive = small, poorly fitted or top-dose-only effect; inactive = no such curve, though single readings can be large or run the other way;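 also: % is scaled to controls: 0 for no effect and ±100 for the full control effect; nearly all actives have a fitted effect of over 50% in size; the assay follows cell death caused by Vpr and the record does not say whether a fall means rescue or toxicity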
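Fission yeast RE007 carrying one integrated HIV-1 vpr copy, seeded at OD 0.01 in PMG+AL medium with 23 nL pinned compound. Grown 24 h at 30 degrees; viability read by BacTiter-Glo luminescence after 5 min.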
* = called active by the depositor; ? = inconclusive; . = not tested or not shown; & = joins results of further samples; [ ] = remark or other dose. Unless noted, calls follow the shape of the dose curve; as a rule, active means well fitted rising curve with a large enough effect; inconclusive means small, poorly fitted or top-dose-only effect; inactive means no such curve, though single readings can be large or run the other way. Potency is read from the fitted curve at half-maximal effect.

Molecule	Lassa entry inh	RE007 growth inh	StopGo reporter	Cruzain inh noDet	MARV entry inh	NS1 function inh	SARS PLP yeast	Cruzain inh Det
CC(C)Oc1ccc(C2CC(=O)NC2=O)cc1 (stereo not given)	5%	4%	-7%	.	21%	12%	-2%	.
CCOc1ccc(/C=C/C(=O)OCC(=O)c2ccccc2OC)cc1OC	-9%	4%	-15%	.	30%	.	2%	.
CCc1ccc(N/C(SC)=C(/C#N)C(N)=O)cc1	-2%	19%	-13%	-11%	-2%	1%	6%	-9.5%
c1cncc(CNCCc2c[nH]c3ccccc23)c1	-1%[46.1 µM]	8%	7%	.	3%[46.1 µM]	.	2%	.
COc1ccc(-c2noc(COc3ccc4c(c3)OCO4)n2)cc1OC	-7%	-13%	-10%	?	2%	-9%	-1%	3.6%
CC(Oc1ccc(Cl)cc1Cl)C(=O)NNC(=O)C(=O)N1CCCCC1 (stereo not given)	11%	-2%	11%	-5%	-13%	-10%	11%	-1.7%
O=S(=O)(NCc1cccc(C(F)(F)F)c1)NCc1ccccc1F	-12%[46.1 µM]	-2%	25%	.	?	.	-1%	.
Cc1ccc(OCC(=O)N(Cc2ccc(Cl)cc2)CC2CCCO2)cc1C (stereo not given)	-15%[46.1 µM]	.	-13%	29%	?	.	.	-8.4%
CCC(C)(C(=O)NC1CCCCC1)N(Cc1ccco1)C(=O)c1ccc2c(c1)OCO2 (stereo not given)	22%	2%	-8%	16%	-18%	-6%	-2%	1.2%
Cc1ccc2nc3c(cc(C(=O)NCc4cccnc4)c(=N)n3C(C)C)c(=O)n2c1	.	.	.	?	1%	4%	-17%	32µM*
COc1ccc(CCNC(=O)Cn2c(-c3ccc(F)cc3)cc(C(C)=O)c2C)cc1OC	-3%[46.1 µM]	.	0%	-5%	.	.	.	-0.4%
CC(OC(=O)CN1C(=O)COc2ccccc21)C(=O)NCc1ccc(F)cc1 (stereo not given)	12%[46.1 µM]	4%	-21%	.	0%[46.1 µM]	7%	23%	.
O=C(O)c1ccc(N/N=C/c2ccc(-c3ccc(Cl)cc3Cl)o2)cc1	.	-26%	23%	.	.	7%	-4%	.
O=C(NCCCN1CCOCC1)C1CCC(=O)N1C1CCCCC1 (stereo not given)	-7%	0%	8%	1%	-2%	2%	-4%	3.7%
Cc1cc(=O)[nH]c(SCC(=O)Nc2ccc(S(=O)(=O)N3CCCCC3)cc2)n1	-13%	13%[3.69 µM]	-6%	-5%	?	-6%	-2%	5.6%
Cc1cc2cc(C)c3nnc(SCc4ccccn4)n3c2cc1C	9%	23%	-35%	?	1%	0%	-19%	-1.2%
CC(C)n1cnnc1SCC(=O)NNC(=O)COc1ccc(Cl)cc1	2%	17%	-16%	.	3%	.	-4%	.
O=C(CN1CCN(c2ncc(C(F)(F)F)cc2Cl)CC1)Nc1ccc2c(c1)OCO2	-2%	13%	.	8%	-2%&5%	-35%	0%	-1.4%
CCOC(=O)COc1ccc(S(=O)(=O)Nc2ccc3c(c2)OCO3)cc1	-1%	-23%	29%	-22%	-2%	12%	3%	-0.2%
Cc1nc(NC(=O)CSc2nc(N)cc(N)n2)sc1C	0%[46.1 µM]	-2%	5%	.	5%[46.1 µM]	?	3%	.
CCCn1c(C)cc(/C=C(\C#N)C(=O)OCC(=O)Nc2ccc(OC)c(Cl)c2)c1C	-9%	.	6%	-12%	-22%	1%	-3%	-9.8%
O=C(O)c1cccc(-n2cccc2/C=C2/NC(=O)N(Cc3ccccc3F)C2=O)c1	-8%	8%	-18%	.	23%[46.1 µM]	.	1%	.
N/C(=N\OC(=O)COc1ccc(Br)cc1)c1cccc([N+](=O)[O-])c1	?	16%	-16%	.	3%	0%	2%	.
O=C(CN(c1cc(Cl)ccc1Cl)S(=O)(=O)c1ccccc1)N1CCOCC1	-1%	-20%	81%[activator]	.	2%	-11%	-1%	.
COc1cc2c(cc1OC)CN(C(=S)Nc1ccccc1)CC2	8%	-10%	.	-3%	-7%	-4%	-1%	-1.9%
NC(=O)c1ccsc1NC(=O)COC(=O)CCOc1ccccc1	0%[46.1 µM]	0%	?	.	-2%[46.1 µM]	-3%	-3%	.
Cc1nn(CC(=O)N2CCN(Cc3ccccc3)CC2)c(=O)c2ccccc12	0%	2%	-23%	3%	12%[46.1 µM]	1%	3%	2.1%
CCOC(=O)CC(=O)CSc1nc2c(cc1C#N)CCCCCC2	-1%	-13%	3%	1%	?	4%	-2%	-5.7%
CC(C)N1CC(C(=O)Nc2ccc(S(=O)(=O)N3CCCCC3)cc2)CC1=O (stereo not given)	-5%	-2%	-2%	.	-11%[46.1 µM]	9%	2%	.
CCOC(=O)N/N=C(/c1ccccc1)C1CCCCC1	-23%	8%	-4%	.	-23%[46.1 µM]	3%	-1%	.

Later entries.
Molecule	Lassa entry inh	RE007 growth inh	StopGo reporter	Cruzain inh noDet	MARV entry inh	NS1 function inh	SARS PLP yeast	Cruzain inh Det
O=C(CN1C(=O)NC2(CCCC2)C1=O)Nc1cccc(Cl)c1	-13%[46.1 µM]	-9%	12%	.	?	0%	-2%	.
CC(=O)NNc1nc(-c2ccccc2)cs1	-1%[46.1 µM]	9%	5%	.	?	.	0%	.
COc1ccc(C2C(C(=O)N3CCCCC3)CCC(=O)N2c2cc(OC)c(OC)c(OC)c2)cc1 (stereo not given)	7.3µM*	-21%	-18%	18%	11%	-5%	22%	0.2%
CC(CNC(=O)c1ccc2nc(Cc3ccccc3)oc2c1)c1ccccc1 (stereo not given)	?	.	-9%	4%	.	.	.	-5.3%
C/C(=N/NC(=O)c1sc(NS(=O)(=O)c2ccccc2)nc1C)c1ccc(F)cc1	-2%	2%	36%[activator]	24%	?	-3%	1%	-0.1%
Cc1csc(NC(=O)CSc2nnc(C)n2Cc2ccco2)n1	-5%	4%	-14%	0%	-12%	-1%	6%	1.3%
CN(C)c1ccc(-c2noc(C3CCN(S(=O)(=O)c4cccc(Cl)c4)CC3)n2)cc1	?	4%	-16%	?	?	-15%	2%	-3.9%
COC(=O)c1ccc(NC(=O)Nc2ccc3c(c2)OCO3)cc1	-14%[46.1 µM]	2%	15%	.	?	9%	4%	.
OC(C#CCCN1CCCCC1)(c1ccccc1)C1CCCCC1 (stereo not given)	?	8%	?	.	-13%	2%	1%	.
CCN1CCN(c2ccc(S(=O)(=O)N3CCCCC3)cc2NC(=O)c2cccc(Cl)c2)CC1	?	0%	-25%	.	?	.	8%	.
CC(C)(C)NCC(O)COCc1ccc(Cl)cc1 (stereo not given)	-1%	-3%	-8%	-5%	?	-15%	2%	3.2%
Cc1ncc2c(n1)-c1cc(F)ccc1SC2	3%[46.1 µM]	-24%	-3%	.	?	4%	1%	.
O=C(Nc1nccs1)c1ccc(COc2ccccc2Cl)o1	?	10%	27%	.	-6%	.	1%	.
O=S1(=O)CCC(NC(=S)Nc2ccc3ccccc3c2)C1 (stereo not given)	2%[46.1 µM]	3%	25%	.	2%[46.1 µM]	3%	1%	.
O=C(CCn1nc(-c2ccc(Cl)cc2)c2ccccc2c1=O)NCC1CCCO1 (stereo not given)	-15%	4%	-11%	?	?	-5%	9%	0.5%
CCOc1ccc(C(=O)NC2CCN(S(=O)(=O)c3ccccc3)CC2)cc1	?	14%	?	.	?	2%	1%	.
Cc1cc(C(=O)CSc2nnc(NCc3ccccc3)s2)c(C)n1C	?	16%	20%	-12%	-13%	-68%	2%	-1.4%
COc1ccc(CCNc2nc(SCc3ccc(Cl)cc3)nc3ccccc23)cc1OC	2%[46.1 µM]	.	-4%	-1%	.	.	.	-0.3%
Cc1cc2n(n1)C(c1ccco1)Nc1ccccc1-2 (stereo not given)	1%	-19%	-1%	9%	10%	-9%	-16%	3.0%
CCCCn1nnc(N(C(=O)c2cccs2)C(=O)c2cccs2)n1	.	-27%	19%	.	.	-43%	-1%	.
O=C(Nc1ccc(F)cc1)NC1(C(=O)NCc2ccc3c(c2)OCO3)CCCCC1	1%	1%	75%[activator]	12%	-19%	6%	-9%	-2.6%
CC(C)(C)c1csc(NC(=O)c2ccccc2O)n1	?	-5%	?	.	11µM*	-136%	-23%	.
O=C(NC1CCCN(Cc2ccc(Cl)cc2)C1)c1c(F)cccc1F (stereo not given)	-18%[46.1 µM]	1%	-1%	.	-22%[46.1 µM]	6%	5%	.
COc1ccc(NC(=O)c2cc(=O)c3cc(C)cc(C)c3o2)cc1	15%[46.1 µM]	.	-10%	-10%	-4%[46.1 µM]	.	.	-2.5%
COc1ccc(/C=C2\C(=O)NC(=S)N2C(=O)c2ccc(F)cc2)cc1	9%	-4%	-5%	-20%	?	-5%	-5%	-6.8%
CC(=O)CCC(=O)NC1CCCc2c1cnn2-c1ccc(C(C)(C)C)cc1 (stereo not given)	.	-12%	?	.	.	-2%	-2%	.
CCN(CC)S(=O)(=O)c1cccc(C(=O)Nc2nnc(C)s2)c1	-12%	12%	-14%	.	-3%[46.1 µM]	-3%	0%	.
COc1cc(CN2CC(=O)N(c3cccc(Cl)c3C)C2=S)cc(OC)c1OC	.	0%	?	.	.	9%	-5%	.
CCN(CC)S(=O)(=O)c1cccc(NC(=O)Nc2cccc(C(F)(F)F)c2)c1	16µM*	-10%	18µM*	-16%	15µM*	19%	-2%	-4.7%
COc1ccc(Cn2c(C3CC3)nc3ccc(NC(C)=O)cc3c2=O)cc1	?	2%	30%	5%	?	-10%	-5%	-6.7%
